D2 ag = Beta-Arrestin HTS for Positive Allosteric Modulators of the Human D2 Dopamine Receptor: Agonists | D(2) dopamine receptor (Homo sapiens), P14416 | DiscoveRx PathHunter D2 beta-arrestin, luminescence, 90 min; 100% = 57 uM dopamine signal | 0.084% of 360,000 active | activation, % (test concentration not listed); in the data active = activation above about 40%; inconclusive = about 15% to 40%; inactive = below about 15%; also: compound concentration not given in the record; the text of the record calls up to 30% inactive
Target sequence (P14416 whole entry, looked up): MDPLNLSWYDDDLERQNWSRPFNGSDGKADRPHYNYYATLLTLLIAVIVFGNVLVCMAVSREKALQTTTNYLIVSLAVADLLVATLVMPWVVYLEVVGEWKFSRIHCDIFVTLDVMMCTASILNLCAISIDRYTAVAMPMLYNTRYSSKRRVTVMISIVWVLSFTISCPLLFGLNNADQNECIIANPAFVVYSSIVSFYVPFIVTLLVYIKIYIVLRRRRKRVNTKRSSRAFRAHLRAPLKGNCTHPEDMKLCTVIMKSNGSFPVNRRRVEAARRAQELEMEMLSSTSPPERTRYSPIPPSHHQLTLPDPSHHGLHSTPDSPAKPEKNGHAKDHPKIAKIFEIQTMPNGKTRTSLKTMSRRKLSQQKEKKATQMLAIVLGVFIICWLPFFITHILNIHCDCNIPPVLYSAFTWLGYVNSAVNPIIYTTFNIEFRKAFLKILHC
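DiscoveRx PathHunter D2 beta-arrestin cells (2,100/well) attached overnight, then compound-stimulated 90 min at 37 C in HBSS/10 mM HEPES/0.1% Tween-20 buffer; beta-galactosidase complementation read by luminescence after 1 h at ambient temperature. Dopamine 57 uM final (EC100) as control.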
D2 potentiator = Beta-Arrestin HTS for Positive Allosteric Modulators of the Human D2 Dopamine Receptor: Potentiators. DiscoveRx D2 beta-arrestin cells, luminescence, 90 min; 100% = 57 uM dopamine signal. potentiation, % (concentration not given with the values). 0.23% of 360,000 active. AID 624464, 2012; active = potentiation of 50% or more; inconclusive = 30% to 50%; inactive = 30% or less;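 also: compound concentration not given in the record; tested on top of an EC20 dose of dopamine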
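PathHunter D2 cells, attached overnight at 37 deg C, received compound in DMSO plus dopamine at EC20 (50 nM final) for 90 min at 37 deg C. Beta-arrestin recruitment was read as luminescence after 1 h with detection reagent at ambient temperature.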
gsp ag = qHTS for Agonist of gsp, the Etiologic Mutation Responsible for Fibrous Dysplasia/McCune-Albright Syndrome: qHTS. gsp mutant cells, cAMP HTRF, 30 min; control for the full effect not named in the record. Potency, µM (highest dose often 76.9 µM), for inactives: at the top dose activation (cAMP increase), most hits filed as activators. 0.13% of 340,000 active. AID 624287, 2012; active = well fitted activation curve with a large enough effect; inconclusive = small, poorly fitted or top-dose-only effect, or another doubt; inactive = no such curve, though single readings can be large or run the other way; cell line not stated here;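 also: phosphodiesterase inhibitor Ro 20-1724 added with compounds to block cAMP breakdown; potency is read from the fitted curve at half-maximal effect; nearly all actives have a fitted effect of over 60% in size; about a fifth of the inactives were tested at one dose only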
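Cells in DMEM/10% FBS with G418 were pretreated with compounds in DMSO plus […] (300 uM stock) for 30 min at 37C. cAMP was measured by HTRF (cAMP-d2 plus anti-cAMP antibody-K) after 30 min at room temperature.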
CtBP-E1A inh = qHTS Assay for Inhibitors of the CtBP/E1A Interaction; CtBP / adenovirus E1A interaction (AlphaScreen); AlphaScreen GST-E1A/His-CtBP binding, 1536-well; active compounds read low; control for the full effect not named in the record; activity change, % (no concentration beside the values); 0.49% of 340,000 active; AID 651724, 2012; in the data active means activity change below about -65%; inconclusive means about -30% to -65%; inactive means above about -30%; also: % is scaled to controls: 0 for no effect and ±100 for the full control effect
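Steps: dispense buffer (Tris pH 8.0, NaCl 300 mM, TCEP 1 mM, BSA, Tween 20); add 5X protein mix (GST-E1A, His-CtBP, 125 nM each); pin 23 nL compound; 2 h at 37 °C, dark; add 5X beads (50 ug/mL); 1 h; read.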
Six1-Eya2 blk = qHTS Assay for Inhibitors of the Six1/Eya2 Interaction | activity change, % (test concentration not listed) | 0.56% of 360,000 active | AlphaScreen GST-Six1/His-Eya2 binding, biochemical; active compounds read low; control for the full effect not named in the record | Homeobox protein SIX1 (Homo sapiens) + Protein phosphatase EYA2 (Homo sapiens), …; in the data active = activity change below about -65%; inconclusive = about -30% to -65%; inactive = above about -30%; also: % is scaled to controls: 0 for no effect and ±100 for the full control effect
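AlphaScreen with GST-Six1 and His-Eya2 (5X mix: 250 nM and 500 nM), glutathione donor and nickel acceptor beads; buffer 50 mM Tris pH 8.0, 300 mM NaCl, 1 mM TCEP; 1 h at 37 C in the dark.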
gsp antagonist = qHTS for Antagonists of gsp, the Etiologic Mutation Responsible for Fibrous Dysplasia/McCune-Albright Syndrome: qHTS; gsp-mutant cells, cAMP HTRF, 30 min; control for the full effect not named in the record; Potency, µM (doses to about 76.9 µM), for the others: top-dose activity change, negative = inhibition, most hits filed as inhibitors; 0.4% of 340,000 active; AID 624288, 2012; active = falling curve of any shape with a large fitted effect; inconclusive = falling curve, mostly with a smaller effect; inactive = flat or rising curve; cell line not stated here;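 also: intracellular cAMP measured with PDE inhibitor Ro 20-1724 present during compound exposure; potency is read from the fitted curve at half-maximal effect; % is scaled to controls: 0 for no effect and ±100 for the full control effect; nearly all actives have a fitted effect of over 65% in size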
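HTRF cAMP read-out (cAMP-d2 plus anti-cAMP antibody-K in lysis buffer, 30 min RT). Before lysis, cells are exposed to compounds with […] for 30 min at 37C in DPBS containing Ca/Mg, BSA and Tween 20.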
* = called active by the depositor; ? = inconclusive; / = not tested or not shown; [ ] = dose if it differs, or a comment.

Six1-Eya2 blk,D2 potentiator,D2 ag,gsp antagonist,gsp ag,CtBP-E1A inh,mol
-4.0,-18.2,-2.4,13.6%,1.2%,-1.8,COc1ccc(C(=O)Nn2cnnc2)cc1
2.1,-1.7,7.0,7.7%,14.5%,4.8,CN(CCn1ccnc1)C(=O)CC1C(=O)NCCN1Cc1ccccc1C(F)(F)F (configuration not stated)
6.4,0.1,3.0,10.9%,15.0%,1.5,CC(O)(CS(=O)(=O)Cc1ccccc1)c1ccccc1 (configuration not stated)
7.5,1.9,-1.2,2.5%,-3.5%,-0.1,CC12CC3CC(C)(C1)CC(CN)(C3)C2
-2.2,-17.6,-1.2,9.0%,?,/,O=C(CCc1nnc2n(CCc3ccccc3)c(=O)c3ccccc3n12)NCCCN1CCCCC1
-2.2,-1.9,-2.2,-15.8%,-37.7%[inhibitor],-1.4,CC(Oc1ccc(Cl)cc1Cl)C(=O)N(Cc1ccco1)C1CCS(=O)(=O)C1 (configuration not stated)
-2.2,-17.0,0.3,-9.6%,-28.2%,-9.4,CCc1ccc(NC(=O)C(=O)c2cn(CC(=O)N3CCCCC3)c3ccccc23)cc1
15.0,-4.2,-2.5,6.8%,5.4%,0.1,C#CCOCCOCCOCCNc1nc(N2CCN(C(=O)Cn3cc(CCCCN)nn3)CC2)nc(N2CCN(C(=O)Cn3cc(CC(C)O)nn3)CC2)n1 (configuration not stated)
-3.9,-25.3,-2.8,9.8%,-10.7%,-4.8,Cc1ccccc1NC(=S)NCCc1ccc(S(N)(=O)=O)cc1
-8.1,-3.3,-6.2,6.6%,20.3%,-21.4,COc1ccc(C(=O)Nc2ccc3c(c2)n(C)c(=O)n3C)cc1OC
-4.9,24.7,-2.3,-3.1%,-0.8%,/,Fc1ccc(NC(=S)NC2CCN(Cc3ccccc3)CC2)cc1
-2.0,-20.2,0.9,-8.9%,-79.0%[inhibitor],-1.4,Cc1c(C(=O)NCCN2CCOCC2)sc2nc(-c3ccc(F)cc3)cn12
-21.7,-7.7,-3.5,-3.2%,?,?,Cc1nc(N)sc1-c1csc(NCc2ccccc2)n1
-12.1,-9.1,-7.1,/,-17.2%,-25.2,O=C(O)C(CCc1ccccc1)N1CCOCC1 (configuration not stated)
6.9,9.7,-1.6,10.6%,-5.0%,0.6,O=C(Nc1ccc2oc(-c3ccccc3Cl)nc2c1)c1cncc(Br)c1
0.2,-7.1,-4.4,/,-38.6%[inhibitor],-6.1,O=C(Cn1ccc(=O)[nH]c1=O)Nc1nccs1
4.5,-3.9,-0.1,-7.0%,?,5.4,Cc1cc(F)ccc1NC(=O)c1cc(S(=O)(=O)N2CCOCC2)cn1C
16.3,-7.2,-0.5,-20.6%,11.0%,/,COc1cccc(CCNC(=O)c2cc(COc3c(F)cccc3F)on2)c1
-1.8,-20.6,0.2,-15.0%,4.6%,19.9,CC12CCC(=O)N1C(C(=O)OCC(=O)Nc1cc(S(=O)(=O)N3CCCCC3)ccc1Cl)CS2 (configuration not stated)
-12.7,2.4,2.0,?,-4.9%,4.4,O=C(Nc1ccc([N+](=O)[O-])cc1)C1CC1(c1ccccc1)c1ccccc1 (configuration not stated)

The last 7 records of the part before lead into the next:
Six1-Eya2 blk,D2 potentiator,D2 ag,gsp antagonist,gsp ag,CtBP-E1A inh,mol
-12.1,-9.1,-7.1,/,-17.2%,-25.2,O=C(O)C(CCc1ccccc1)N1CCOCC1 (configuration not stated)
6.9,9.7,-1.6,10.6%,-5.0%,0.6,O=C(Nc1ccc2oc(-c3ccccc3Cl)nc2c1)c1cncc(Br)c1
0.2,-7.1,-4.4,/,-38.6%[inhibitor],-6.1,O=C(Cn1ccc(=O)[nH]c1=O)Nc1nccs1
4.5,-3.9,-0.1,-7.0%,?,5.4,Cc1cc(F)ccc1NC(=O)c1cc(S(=O)(=O)N2CCOCC2)cn1C
16.3,-7.2,-0.5,-20.6%,11.0%,/,COc1cccc(CCNC(=O)c2cc(COc3c(F)cccc3F)on2)c1
-1.8,-20.6,0.2,-15.0%,4.6%,19.9,CC12CCC(=O)N1C(C(=O)OCC(=O)Nc1cc(S(=O)(=O)N3CCCCC3)ccc1Cl)CS2 (configuration not stated)
-12.7,2.4,2.0,?,-4.9%,4.4,O=C(Nc1ccc([N+](=O)[O-])cc1)C1CC1(c1ccccc1)c1ccccc1 (configuration not stated)
6.5,-13.9,-4.0,-5.6%,8.5%[15.4 µM],-2.1,COC(=O)N/N=C\c1c(C)[nH]n(-c2ccccc2)c1=O
1.4,-0.2,0.7,-11.2%,5.0%[15.4 µM],15.4,CCc1c(C)c(C#N)c2nc3ccccc3n2c1-n1nc(C)cc1C
-18.1,-12.6,-4.9,-8.1%,-1.0%[15.4 µM],-23.2,Cc1cc(/C=C2\SC(=S)NC2=O)c(C)n1-c1ccccc1
-13.9,-3.1,-2.4,-5.1%,-63.0%[inhibitor],-7.5,O=c1cc(-c2ccc(O)cc2)oc2ccccc12
-3.3,0.9,2.1,-18.7%,-18.7%,51.7,O=C(O)CCSc1nnc(COc2cccc3ccccc23)n1-c1cccc(Cl)c1
2.1,-8.1,10.2,2.2%,-35.7%[inhibitor],6.2,CCOc1ccc(/C=C/c2nc(C#N)c(NCCCN(C)C)o2)cc1
5.2,-2.8,-1.8,-5.0%,20.8%,6.3,CCC(C)NC(=O)c1ccc(C(=O)c2ccccc2)cc1 (configuration not stated)
-19.1,13.0,-0.6,-5.6%,2.3%,/,Cc1cccnc1NC(=S)Nc1ccc(Cl)c(Cl)c1
3.8,-1.7,-9.7,1.5%,-45.9%[15.4 µM],?,O=C(COc1ccccc1C(=O)O)NC1CCCc2ccccc21 (configuration not stated)
6.4,-3.1,-6.5,-9.6%,1.3%[15.4 µM],-0.8,COc1ccccc1C(=O)NCC(=O)OCC(=O)c1cccc2ccccc12
0.6,-5.0,0.2,?,-17.1%,/,O=C(Nc1ccc2ccccc2c1)C(c1ccccc1)C1CCCC1 (configuration not stated)
-16.9,21.4,3.6,-7.5%,-15.5%,-0.1,O=C(COC(=O)c1ccc([N+](=O)[O-])s1)Nc1ncc(C(F)(F)F)cc1Cl
-11.9,8.5,?,5.6%,-44.6%[inhibitor],8.6,N/C(=N\OC(=O)c1ccc2ccccc2c1)c1ccncc1
-16.4,-2.6,1.4,-6.8%,-0.7%,-18.6,Cc1ccc2[nH]c(C(=O)N3CCCC(Nc4ccc(F)cc4)C3)cc2c1 (configuration not stated)
-5.1,-7.5,-3.0,-30.7%,16.9%[15.4 µM],4.7,O=C(COC(=O)CCc1ccccc1)Nc1cc(S(=O)(=O)N2CCOCC2)ccc1N1CCCC1
-4.0,15.5,?,-14.2%,-9.1%,-0.6,COc1ccc(-c2nc(CN3CCN(C(=O)c4ccco4)CC3)c(C)o2)c(F)c1
-2.7,-7.9,-6.0,-15.9%,3.1%,0.1,CCc1ccc(/C=N/NC(=O)c2c[nH]c3ccccc23)s1
-1.9,?,4.4,12.2%,24.1%,/,CCn1c(=O)n(CC)c2cc(NC(=O)c3ccccc3Cl)ccc21
5.7,2.5,3.3,-1.6%,-18.0%,-20.8,Cc1ccc(C(C)NC(=O)c2ccncc2)c(C)c1 (configuration not stated)
-1.8,4.2,-0.7,/,-58.0%[inhibitor],-0.3,O=C(/C=C/c1ccccc1[N+](=O)[O-])OCC(=O)N1CCN(c2ccccc2)CC1
-2.7,-4.7,-0.4,-9.2%,-5.2%,5.5,COc1ccccc1C(=O)NCCC(=O)NCC(c1ccc(F)cc1)N1CCOCC1 (configuration not stated)
2.2,17.5,-0.4,0.6%,-2.3%,3.7,COc1cc(S(=O)(=O)N2CCOCC2)ccc1NC(=O)COC(=O)C12CC3CC(CC(C3)C1)C2
1.0,-9.7,2.3,-9.7%,-1.2%,-4.0,O=C(O)c1ccc(/C=N/N2CCN(Cc3cccc4ccccc34)CC2)cc1
7.9,-19.5,-0.7,-2.0%,-15.9%,5.3,O=C(NCCc1ccccc1)C1CCN(S(=O)(=O)c2cccc3nsnc23)CC1
5.0,-12.3,-4.0,10.0%,0.5%,5.5,CCOC(=O)CNC(=O)CSc1nnc(NC(=O)c2ccc(S(=O)(=O)N3CCOCC3)cc2)s1
3.8,-4.2,-8.9,2.6%,-6.6%,9.0,COc1ccc(OC)c(CCNC(=O)C2CCN(c3ncnc4c3nc3n4CCCCC3)CC2)c1
0.3,-5.5,-2.3,0.1%,-1.6%,-2.0,CCOC(=O)N1CCN(Cc2cn[nH]c2-c2cc3ccccc3o2)CC1
3.2,13.2,0.3,3.8%,23.6%[15.4 µM],5.3,CCOc1ccc(C(=O)NNC(=O)CCNC(=O)c2ccco2)cc1OC
-15.5,-7.3,3.7,/,/,-14.5,CN(C)C(=O)c1cccc(-c2cnc3c(NC=O)cc(-c4cccc(C(F)(F)F)c4)cn23)c1
3.4,-12.0,-1.5,1.1%,17.0%,-2.5,COc1ccc2c(c1)CCc1c(C(=O)NCCN3CCOCC3)noc1-2
5.5,-8.0,2.8,-10.8%,9.6%[15.4 µM],-1.1,Cc1c(/C=N/NC(=O)c2ccc(Br)o2)cnn1C
-7.4,-4.0,-3.7,-10.3%,-15.0%,3.6,COc1ccc(C2C3=C(CC(C)(C)CC3=O)Oc3ncn(CCCn4ccnc4)c(=N)c32)cc1 (configuration not stated)
-1.6,-10.8,-3.5,7.1%,10.1%,/,CC(C)(C)NC(=O)/C(=C/c1cccnc1)NC(=O)c1ccco1
